Bioassay records deposited in PubChem BioAssay by National Center for Advancing Translational Sciences (NCATS).
VDR inh: Inhibitors of the vitamin D receptor (VDR): qHTS; actives 0.93% (n = 400,000); Vitamin D3 receptor (Homo sapiens), P11473; Potency, µM, for the others: max response, negative = inhibition, most hits filed as inhibitors; VDR-SRC2-3 peptide fluorescence polarization, 2 h; active = well fitted inhibition curve with a large enough effect; inconclusive = small, poorly fitted or top-dose-only effect, or another doubt; inactive = no such curve, though single readings can be large or run the other way; also: series mostly up to about 120 µM
Target sequence (P11473 whole entry, looked up): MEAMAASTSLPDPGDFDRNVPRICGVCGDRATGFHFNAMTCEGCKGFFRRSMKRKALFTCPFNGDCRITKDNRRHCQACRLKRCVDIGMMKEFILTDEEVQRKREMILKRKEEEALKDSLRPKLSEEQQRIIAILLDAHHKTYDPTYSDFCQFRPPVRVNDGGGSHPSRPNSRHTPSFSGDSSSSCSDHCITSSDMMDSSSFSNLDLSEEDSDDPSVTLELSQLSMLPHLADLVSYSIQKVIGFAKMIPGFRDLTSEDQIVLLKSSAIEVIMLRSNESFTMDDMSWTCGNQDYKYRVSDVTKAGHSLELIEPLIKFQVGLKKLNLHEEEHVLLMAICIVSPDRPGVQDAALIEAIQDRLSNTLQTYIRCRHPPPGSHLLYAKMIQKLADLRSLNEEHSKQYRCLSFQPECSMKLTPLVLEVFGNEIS
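Reagent solutions, kept cold and dark, are dispensed first; compounds are then pinned in at 23 nl, plates briefly spun, and incubated 2 h at ambient temperature. Inhibition of VDR–SRC2-3 peptide binding is read by fluorescence polarization.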
* marks the source's active call; other numbers are inactive results; ? = inconclusive; & = joins results of further samples. % is scaled to controls: 0 for no effect and ±100 for the full control effect; potency is read from the fitted curve at half-maximal effect. Some of the compounds tested; count on the stated rates, not on these rows.

SMILES | VDR inh
Oc1ccc(C[C@H]2NCCc3cc(O)c(O)cc32)cc1O | 0%
C[C@@H]1C(=O)O[C@H]2[C@H](O)[C@]34[C@@H]5OC(=O)[C@]3(OC3OC(=O)[C@H](O)C34[C@H](C(C)(C)C)[C@@H]5O)[C@@]12O (stereo not given in full) | 3%
CC(=O)N1CC[N+](C)(C)CC1 | 1%&-4%
Cc1nn(Cc2ccccc2Cl)c(C)c1C(=O)OCC(=O)NC1CCCC(C)C1C (stereo not given) | -18%
COc1ccc(C(=O)CC2C(=O)N(C)C(=O)N(C)C2=O)cc1 | ?
Cc1nn(C)c(C)c1-c1cccc2c1CCC(N(C)C)C2 (stereo not given) | 11%
COc1ccc(-c2nn(Cc3ccccc3)cc2C(=O)NC2CC2)cc1OC | 3%
O=C(COc1ccccc1)N1CCN(CC2CC3C=CC2C3)CC1 (stereo not given) | -4%
CN1C2CC(OC(=O)C(CO)c3ccccc3)CC1C(O)C2 (stereo not given) | 9%
CCC1(c2ccc(N)cc2)CCC(=O)NC1=O (stereo not given) | 4%&-5%
COC(=O)C1=C(c2cc3ccccc3o2)C[C@@H]2CC[C@H]1N2C(=O)NC1CCCCC1 | 3%
CCN(CC)C(=O)c1ccc(N(Cc2ccccc2)S(C)(=O)=O)cc1 | -15%
CCN1C[C@@]2(COC)[C@H]3[C@@H](OC)[C@H]4C1[C@@]3([C@H](OC)C[C@@H]2O)[C@H]1C[C@@]2(O)[C@@H](OC(=O)c3ccccc3)[C@@H]1[C@@]4(OC(C)=O)[C@H](O)[C@@H]2OC | 1%
CCCCCc1nc2ccccc2c(=O)n1-c1ccc(C)cc1 | -10%
CCOP(=O)(OCC)c1ccc(OP(=O)(c2cccc([N+](=O)[O-])c2)c2cccc([N+](=O)[O-])c2)cc1 | -2%
Cc1ccc(CC2C(=O)N(C)C(=O)N(C)C2=O)s1 | ?
C[C@H]1O[C@@H](O[C@H]2[C@@H](O)C[C@H](O[C@H]3[C@@H](O)C[C@H](O[C@H]4CC[C@]5(C)C6CC[C@]7(C)[C@@H](C8=CC(=O)OC8)CC[C@]7(O)C6CC[C@@H]5C4)O[C@@H]3C)O[C@@H]2C)C[C@H](O)[C@@H]1O (stereo not given in full) | 7%
CCCCCCCCCCCCCCCC(=O)OC[C@H](COP(=O)([O-])OCC[N+](C)(C)C)OC(C)=O | 0%&-6%
OC1(c2ccccc2)CCNC2CCCCC21 (stereo not given) | 1%
C=CCN1C(=O)NC(=O)/C(=C\c2ccc(-c3ccccc3[N+](=O)[O-])o2)C1=O | 18µM*
Cc1nc2ccccc2c(=O)n1-c1cc(F)ccc1F | -6%
COC(=O)C1=C(c2cccc(OC)c2OC)C[C@@H]2CC[C@H]1N2C(=O)NCCO | 2%
O=C(N/N=C/c1c(O)n(CCC2=CCCCC2)c(=S)[nH]c1=O)c1ccccc1 | ?
O=C(Cn1c(=O)n(CC2CS2)c2ccccc21)N1CCCCCC1 (stereo not given) | 2%
CN1C(=O)CN=C(c2ccc(Cl)cc2)c2cc(Cl)ccc21 | -16%

Arranged by formula weight (highest first): part of the list above
SMILES | VDR inh
Cc1nn(Cc2ccccc2Cl)c(C)c1C(=O)OCC(=O)NC1CCCC(C)C1C (stereo not given) | -18%
CCN(CC)C(=O)c1ccc(N(Cc2ccccc2)S(C)(=O)=O)cc1 | -15%
Cc1ccc(CC2C(=O)N(C)C(=O)N(C)C2=O)s1 | ?

Next structures:
SMILES | VDR inh
O=C1C=C2C(=CCOC2O)O1 (stereo not given) | 13µM*
COc1cc2c(cc1O)[C@@H]1Cc3ccc(OC)c(O)c3CN1CC2 | -7%
CCN1CCc2ccccc2C1 | -4%
Cc1ccc(C)c(NP(=O)(Oc2ccccc2)Oc2ccccc2)c1 | 6%
O=C(Nc1cccc(Cl)c1)OCC#CCN1CCCC1 | -13%
O=C(O)Cn1cc(/C=C2\C(=O)NC(=O)N(c3ccc(Br)cc3)C2=O)c2ccccc21 | ?
C=CCc1c(C)[nH]c(=S)c(C#N)c1C | ?
COC(=O)C1=C(c2cccc(C#N)c2)C[C@@H]2CC[C@H]1N2C(=O)N1CCCCC1 | -23%
CC[C@H](C)[C@@H](C(=O)N1CCCC1c1nccs1)N(C)C(=O)[C@H](CC(C)C)N(C)C(=O)[C@H](Cc1ccc(OC)cc1)N(C)C(=O)/C=C(\C)OC (stereo not given in full) | 2%
O=c1c2ccc(Cl)cc2[nH]c(=S)n1-c1cccnc1 | -15%
Cc1cc(OCc2cc(C(=O)O)oc2C)c2c3c(c(=O)oc2c1)CCCC3 | -7%
CC1C(=O)OC2C(O)C34C5OC(=O)[C@@]3(OC3OC(=O)[C@H](O)[C@]34C(C(C)(C)C)C5O)[C@]12O (stereo not given in full) | 2%
O=C1C(=O)c2ccccc2-c2ccccc21 | 10µM*
C=CCn1c(O)c(C(=O)CCCCCC)c(=O)[nH]c1=O | 8%
CN1C(=O)CC(=O)N(c2ccccc2)c2cc(Cl)ccc21 | -9%
O=C1CC(N2CCC(n3c(=O)[nH]c4ccccc43)CC2)C(=O)N1c1ccc(F)cc1 (stereo not given) | -6%
C1CC2OC2CC1C1CO1 (stereo not given) | -5%
COC(=O)C1=C(c2ccc(Cl)c(C(F)(F)F)c2)C[C@@H]2CC[C@H]1N2C(=O)NCCOc1ccccc1 | -5%
COc1ccc(N2CCN(CCCN)CC2)cc1 | -7%
CC(=O)O[C@@]12CO[C@@H]1C[C@@H](O)[C@@]1(C)C(=O)[C@H](O)C3=C(C)[C@@H](OC(=O)[C@H](O)[C@@H](NC(=O)c4ccccc4)c4ccccc4)C[C@@](O)([C@@H](OC(=O)c4ccccc4)C12)C3(C)C (stereo not given in full) | -9%
O=C(O)CNC1c2ccccc2CSc2ccccc21 (stereo not given) | -19%
CC(C)c1ccc(-n2c(O)c(/C=N/NC(=O)c3ccncc3)c(=O)[nH]c2=O)cc1 | -18%
Clc1ccc(C2CC3CCC2N3)cn1 (stereo not given) | 0%&6%&6%
C[C@]12CCC3C(CC[C@H]4C[C@@H](O)CC[C@]34C)C1C[C@@H](N)[C@@H]2O (stereo not given in full) | -3%
CC(=O)N1N=C2C3CCN(CC3)C2C1c1ccccc1 (stereo not given) | 3%

The final 3 compounds of the part before come first, to join the parts.
SMILES | VDR inh
Clc1ccc(C2CC3CCC2N3)cn1 (stereo not given) | 0%&6%&6%
C[C@]12CCC3C(CC[C@H]4C[C@@H](O)CC[C@]34C)C1C[C@@H](N)[C@@H]2O (stereo not given in full) | -3%
CC(=O)N1N=C2C3CCN(CC3)C2C1c1ccccc1 (stereo not given) | 3%
NP(N)(=O)NC(=O)c1ccc(F)cc1 | -1%
CN1CCN(C(=O)COc2ccc(-c3nc4ccccc4s3)cc2)CC1 | 5%
FC(F)(F)Oc1ccc(C2NCc3ccccc3-n3cccc32)cc1 (stereo not given) | -19%
Cc1nc2c(c(=O)[nH]1)C(c1ccccc1Cl)c1c(c3ccccc3oc1=O)O2 (stereo not given) | 3%
O=[N+]([O-])c1ccc(C2[C@H]3C(c4ccccc4)=NC4(CCCC4)N23)cc1 (stereo not given in full) | 3%
Cc1cccc(C)c1NC(=O)CN1CCCC1 | -2%&40%
CN1C(=O)N(C)C(=O)C(CCc2ccncc2)(Cc2ccc3c(c2)OCO3)C1=O | 2%
CCCn1c(=O)c2[nH]c(C3CCCC3)nc2n(CCCOC(=O)c2ccc(S(=O)(=O)F)cc2)c1=O | -5%
CCOC(=O)c1[nH]ncc1CN1CCCC(C(=O)c2cccc(Cl)c2)C1 (stereo not given) | -4%
COc1ccc(CCn2c(O)c(/C=N/NC(=O)c3ccncc3)c(=O)[nH]c2=O)cc1OC | -2%
COc1ccc(OCC#CCN2CCNCC2)cc1 | -1%
CN1[C@@H](C[C@@H](O)c2ccccc2)CCC[C@@H]1C[C@H](O)c1ccccc1 | 0%
COc1ccccc1CCNC1C2CC3CC(C2)CC1C3 (stereo not given) | -18%
CC[n+]1c(SC)ccc2cc(OC)ccc21 | -23%
CC(NC(=O)Oc1ccccc1)C(c1cccs1)N1CCOCC1 (stereo not given) | -13%
CCn1nc(-c2cccs2)nc2c(=O)n(C)c(=O)nc1-2 | -4%
COc1ccc(CC(=O)C2C(=O)N(C)c3ccccc32)cc1OC (stereo not given) | -12%
Cc1cc(=O)oc2c(C)c(OCC(=O)N3CCC(C(=O)O)(c4ccccc4)CC3)ccc12 | -3%
COC(=O)C1=C(c2ccc(F)cc2F)C[C@@H]2CC[C@H]1N2C(=O)NC1CCCCC1 | -11%
COc1ccc(OC)c(N2C(=O)NC(=O)/C(=C/c3ccc([N+](=O)[O-])s3)C2=O)c1 | ?
c1cncc(CNC2=NCCC2)c1 | 13%
CC[N+](CC)(CCCNC1=CC(=O)C(NCCC[N+](CC)(CC)Cc2ccccc2)=CC1=O)Cc1ccccc1 | 1%&13%
CNc1cc(N2CCN(C)CC2)ccc1[N+](=O)[O-] | -16%
CC(=O)[C@@]1(O)CC[C@H]2[C@@H]3CC=C4C[C@@H](O)CC[C@]4(C)[C@H]3CC[C@@]21C | -24%
NCC(CS(=O)(=O)O)c1ccc(Cl)cc1 (stereo not given) | 0%

A second format for part of the listing above.
smiles,VDR inh
CCCCCc1nc2ccccc2c(=O)n1-c1ccc(C)cc1,-10%
CCOP(=O)(OCC)c1ccc(OP(=O)(c2cccc([N+](=O)[O-])c2)c2cccc([N+](=O)[O-])c2)cc1,-2%
Cc1ccc(CC2C(=O)N(C)C(=O)N(C)C2=O)s1,?
C[C@H]1O[C@@H](O[C@H]2[C@@H](O)C[C@H](O[C@H]3[C@@H](O)C[C@H](O[C@H]4CC[C@]5(C)C6CC[C@]7(C)[C@@H](C8=CC(=O)OC8)CC[C@]7(O)C6CC[C@@H]5C4)O[C@@H]3C)O[C@@H]2C)C[C@H](O)[C@@H]1O (stereo not given in full),7%
CCCCCCCCCCCCCCCC(=O)OC[C@H](COP(=O)([O-])OCC[N+](C)(C)C)OC(C)=O,0%&-6%

The list goes on:
SMILES | VDR inh
O=c1c2ccccc2nc(/C=C/c2ccc([N+](=O)[O-])o2)n1-c1ccc(O)cc1 | -1%
CN(C)C(=O)Oc1c(Cl)cc(Cl)c2ccccc12 | -11%
c1ccc(NC2=NCCS2)cc1 | -10%
CCC1(C2=NCCN2)Cc2ccccc2O1 (stereo not given) | 0%&-7%&7%&15%
Cc1ccc(-n2sc3ccccc3c2=O)cc1 | 3.2µM*
CCc1cc2c(N3CCN(C)CC3)ncnc2s1 | -6%
COc1ccc(-n2c(O)c(/C=C3\C=Nc4ccc(Br)cc43)c(=O)[nH]c2=O)cc1 | ?
COc1cccc(CCNCc2c(F)cccc2F)c1 | -10%
COc1cc(CN2C(=O)NC(=O)C3(Cc4cc(C)ccc4N(C)C3)C2=O)cc(OC)c1 (stereo not given) | -28%
CCN(CC)CCC(=O)O[C@H]1CC[C@]2(C)C3CC[C@@]4(C)C(CC[C@]4(C)O)C3CC[C@H]2C1 (stereo not given in full) | -1%
CCCN1CC[C@@H]2c3cc(O)ccc3CC[C@@H]21 | 12%&5%&6%
CCOP(=O)(Cc1ccccc1)OCC | -18%
COc1cc2[nH]c(=S)n(-c3ccccc3)c(=O)c2cc1OC | 16%
Cn1c(CN2CCN(C(=O)COc3ccccc3)CC2)nc2cc([N+](=O)[O-])ccc21 | 4%
O=c1c2ccccc2nc(-c2ccc(-c3ccccc3)cc2)n1-c1ccncc1 | -4%
CC1CCC2[C@@H](C)C(=O)OC3O[C@]4(C)CCC1C32OO4 (stereo not given in full) | 2%
COCCN1C(=O)NC(=O)/C(=C\c2ccc(Br)cc2)C1=O | ?
CN1CCC2(CC1)CC(NC=O)c1ccccc1O2 (stereo not given) | 0%
OC(c1ccc(F)cc1)(c1ccc(F)cc1)[C@@H]1CCCN1 | 4%
CN(C)P(=NC(=S)c1cccn1C)(N(C)C)N(C)C | -1%
O=C1NC(=S)NC(=O)C1C/C=C/c1ccccc1 | 79µM*
COc1ccc2c(C)c(CC(=O)N3C[C@H]4C[C@@H](C3)c3cccc(=O)n3C4)c(=O)oc2c1C | -13%
CC(=O)c1ccc2c(c1)OCO2 | -6%
CC1(C)CC(N(CCc2ccccc2)Cc2ccccc2)CCO1 (stereo not given) | -10%
COc1ccc(-c2ccc3n2Cc2cnnn2-c2ccccc2-3)cc1 | -8%
New compounds follow
SMILES | VDR inh
CCc1ccccc1N1C(=O)CC(=O)NC1=O | -18%
CCCCCCC(Cl)(Cn1ccnc1)c1ccccc1 (stereo not given) | -4%
COc1ccc(-c2cc(=NCC(=O)O)c3ccccc3o2)cc1 | 9%
c1ccc2sc(C3(N4CCCC4)CCCCC3)cc2c1 | -24%
CCCC1CCCCC12C(=O)NC(=O)NC2=O (stereo not given) | -11%
Cc1cccn2c(=O)c(/C=C(\C#N)c3nc4ccccc4s3)c(Oc3ccc(F)cc3)nc12 | ?
CNC(=O)Nc1ccc(C(=O)N/N=C\C23CC[C@@H](O)CC2(O)CC[C@@H]2[C@@H]3CCC3(C)C(C4=CC(=O)OC4)CCC23O)cc1 (stereo not given in full) | 9%
C[C@H](NC(=O)[C@@H](N)Cc1ccc(O)cc1)C(=O)NCC(=O)N(C)[C@@H](Cc1ccccc1)C(=O)N[C@H](CO)CCS(C)=O (stereo not given in full) | -1%
NC1=Nc2ccccc2Oc2ccccc21 | -13%
COC(=O)C(O)(c1ccc(NC(=O)c2ccccc2)cc1)C(F)(F)F (stereo not given) | -3%
CCC(=O)N1CC(=O)Nc2ccc(C)cc2C1c1ccc(F)cc1 (stereo not given) | -19%
O=C(Cn1cnc2sc3c(c2c1=O)CCCC3)NCCC(=O)N1CCC2(CC1)OCCO2 | -6%
